Bead autofluor – counter-screen for toxin protease inhibitors: compound fluorescence; AID 624483; 360,000 tested, 3.1% active; compound autofluorescence counterscreen, microsphere flow cytometry; hits give high values; fluorescence intensity (test concentration not listed);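 active means at least 3 SD above the mean of all compounds, about 16000 in these data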;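 further: 100 nL of 1 mM stock went into each well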
RN4220 kill – growth inhibition of S. aureus RN4220, primary screen, OD600. 16 h. inhibition, % (test concentration not listed). 330,000 tested, 0.33% active. AID 1259311, 2017;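 active means z-score of -3 or lower and OD600 up to 0.18 on both plates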;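 further: plate controls were untreated cells for no effect and reference antibiotic for full effect; stock transfer was 100 nL into about 80 µL; one replicate is shown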
Mtb hypoxia rep – PubChem AID 1159583; M. tuberculosis hypoxia-regulated fluorescent reporter, fluorescence; 300,000 tested, 0.1% active; fluorescence inhibition, % (concentration not given with the values);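 active means 35 to 45% if threefold the growth effect, above 45% if 1.5-fold the growth effect; inactive means the rest, general growth blockers included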;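 further: wells of about 50 µL received 100 nL stock; 0% = vehicle wells and 100% = reference inhibitor wells; whole bacteria with a GFP reporter of the hypoxia response; strong numbers were not always called active; many hits fall short of the cut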
BJeLR viability – MLPCN primary cell-based screen for lethality selective to Ras in HRASV12 cells; BJeLR (HRASV12) viability, CellTiter-Glo ATP luminescence, 48 h; reference of the scale not given here; inhibition, % (test concentration not listed); 300,000 tested, 0.17% active; AID 1554, 2009;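 active means replicate mean above 50%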;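 further: 50 nL library stock added to about 25 µL; numbers are from one replicate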
ugtP null kill – growth inhibition of ugtP-null S. aureus, primary screen, RN4220 ugtP deletion, OD600. 16 h; some inactives read as strong as hits. 330,000 tested, 0.54% active. growth inhibition, % (concentration not given with the values);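 active means z-score under -3 and OD600 up to 0.15 on both plates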;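 further: plate controls were untreated wells for no effect and antibiotic for full effect; wells of about 80 µL received 100 nL stock; the first replicate is given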
PrP 5UTR inh – inhibition of PrP 5' UTR reporter expression. cell-based PrP 5' UTR mRNA reporter, plate reader. inhibition, % (concentration not given with the values). 340,000 tested, 0.35% active. AID 488862, 2010;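 active means every replicate at 50% or more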;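 further: 0 = median of the neutral control wells; tested in H4 reporter cells; numbers are from one replicate; inactives centre near -14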
Mtb hypoxia rep growth – further read-out of Mtb hypoxia rep, marked with its call; growth inhibition, %; measured here: M. tuberculosis growth (absorbance);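 0% = vehicle and 100% = reference antibiotic; read after six days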
The depositor's hits bear a star; · = no result given. An unsorted share of the library. Share with any hit: about 4.1%.

SMILES	Bead autofluor	RN4220 kill	Mtb hypoxia rep	Mtb hypoxia rep growth	BJeLR viability	ugtP null kill	PrP 5UTR inh
COc1ccc(-c2noc(CNC(=O)c3ccoc3C)n2)cc1	4482	1.1	-1.4	-11.3	-14.3	6.2	-16.6
Cc1cc(C)cc(NC(=S)N2CCN(c3ccc(F)cc3)CC2)c1	2020	2.7	-3.6	12.2	-2.6	-0.6	-12.0
Cc1ccc(C)c(NC(=S)N2CCN(CCO)CC2)c1	2343	2.3	9.4	-2.9	1.1	4.5	-0.8
COc1ccccc1OCC(=O)NCc1ccco1	10212	2.0	4.0	-10.2	-1.7	-3.2	-11.9
O=C(CSc1nc(-c2ccccc2)cc(=O)[nH]1)Nc1ccc(F)c(F)c1	3645	-0.3	-14.5	6.6	6.0	-0.7	4.0
COc1cccc(N2C(=O)C3CCCN3C2c2cccs2)c1 (stereo not given)	3811	-0.8	1.6	-2.3	-11.3	-1.8	-12.8
Cc1ccc(NC(=O)C2CC(=O)N/C(=N/NC(=O)c3ccc(C)cc3)S2)cc1 (stereo not given)	2543	2.1	-0.6	8.8	-11.9	3.1	-7.4
CCOc1ccc(C(=O)OCC(=O)NC2CCCCCCC2)cc1	4044	-0.6	-5.9	7.0	·	0.7	4.6
CN(CC(=O)Nc1cccc(F)c1)C(=O)c1ccc(-c2cccc(C(F)(F)F)c2)o1	·	-4.1	-0.6	3.9	-13.6	-16.1	-17.9
Cc1nc(CCNC(=O)CC2C(=O)NCCN2Cc2ccccc2)sc1C (stereo not given)	4347	1.0	1.5	0.0	11.9	-4.1	-6.3
CN(CC(=O)Nc1cccc(F)c1)C(=O)c1sccc1-c1ccccc1	6700	1.9	7.7	9.3	·	-1.9	-13.5
COc1ccccc1N(C(=O)CCl)c1cn(C(C)=O)c2ccccc12	4783	3.9	20.1	14.5	65.1*	18.9	-27.4
O=C(O)CC1c2ccccc2C=Cc2ccccc21	3415	-1.0	1.6	3.1	6.5	14.9	-35.6
Nc1nonc1-n1nnc(C(=O)N/N=C/c2ccc(Br)cc2)c1CSC1=NCCS1	9099	·	·	·	0.9	·	-20.4
COc1ccc(C(=O)C2CCCN(C(=O)c3cccnc3OC)C2)c(C)c1 (stereo not given)	2991	4.3	10.4	11.3	0.9	3.5	-10.9
CCc1nnc(NC(=O)CSc2nnc(CNc3cccc(Cl)c3)n2CC)s1	7959	6.0	13.8	0.8	-5.7	-3.6	-9.9
COc1ccc(C(=O)NN2CC(O)=C(c3nc4ccccc4n3C)C2=N)cc1OC	2531	-2.7	-1.3	-2.6	-1.3	4.2	-11.2
O=C(CCS(=O)(=O)c1ccc(Br)cc1)Nc1cc(F)ccc1F	2567	11.6	13.3	7.9	12.0	6.0	-17.1
CC(=NOCC(=O)OCC(=O)NC(=O)c1ccc(OC(F)F)cc1)c1ccc2c(c1)OCO2	·	4.9	2.1	-0.5	·	9.0	·
O=C(c1cc(-c2ccccc2)on1)N1CCc2ccccc2C1	2306	3.3	10.8	9.7	-1.9	14.7	-12.2
CC(C)CC(=O)N1CCC(O)(CS(=O)(=O)Cc2ccccc2Cl)CC1	21027*	1.8	6.7	3.2	8.4	-8.1	-3.7
CCOC(=O)CSc1ccc(C(=O)N2CCC3(CC2)OCCO3)cc1[N+](=O)[O-]	3127	1.8	20.6	19.0	-3.9	7.1	-5.7
C=CCc1ccc(OCCCCN2CC(C)CC(C)C2)c(OC)c1 (stereo not given)	4857	5.5	2.2	28.4	3.8	0.9	-25.3
CC1=C(C#N)C(NC(=O)c2ccccc2Cl)(C(F)(F)F)C(=O)N1 (stereo not given)	10675	7.0	-2.5	2.4	-11.0	9.3	-7.0
O=C(Nc1cc(S(=O)(=O)N2CCCCCC2)ccc1OCC(F)(F)F)C1CCC1	5865	1.2	-6.8	7.4	3.5	-1.0	-5.1

The list goes on.
SMILES	Bead autofluor	RN4220 kill	Mtb hypoxia rep	Mtb hypoxia rep growth	BJeLR viability	ugtP null kill	PrP 5UTR inh
O=S(=O)(Nc1ccc(S(=O)(=O)N2CCCCC2)cc1)c1cccs1	3706	9.2	·	·	3.6	-2.5	-17.5
CC(=O)C(C(c1ccccc1)c1c[nH]c2ccccc12)[N+](=O)[O-] (stereo not given)	3620	0.6	16.6	4.6	7.4	-13.6	-6.8
Cn1c(=O)cc(SCC(=O)N2CCN(C(=O)c3ccco3)CC2)c2ccccc21	3282	6.0	6.0	3.9	-6.0	9.1	5.0
O=C(CC1Sc2ncnn2C1=O)Nc1ccc(Br)cc1 (stereo not given)	4688	10.4	·	·	2.0	3.0	7.7
CCOC(=O)C(CC)Sc1cc(C)nc2ccc(OC)cc12 (stereo not given)	3945	5.3	1.0	16.4	-1.4	13.6	7.0
COc1ccc2c(C)cc(N3CCOCC3)nc2c1	4569	11.3	·	·	0.4	0.2	-25.6
OCC1OC(n2cnc3c(NCCc4ccccc4)ncnc32)C(O)C1O (stereo not given)	5996	·	·	·	42.7	·	-28.0
Fc1ccc(COc2cccc(CNCc3ccncc3)c2)cc1	4255	-5.9	3.9	2.0	14.8	-5.5	2.3
CC(C)(C)Nc1c(-c2cccs2)nc2ccccn12	4199	1.8	2.3	1.7	5.6	-1.9	-20.3
O=C1c2ccccc2CN1CCNS(=O)(=O)c1ccc2ccccc2c1	3319	-3.1	9.2	6.6	2.4	-7.0	-8.1
Cc1cc(OCC(=O)N2CCOCC2)c(C(C)C)cc1Cl	4888	7.0	8.2	-2.0	-0.2	9.3	-20.2
C/C(=N\Nc1nnc(C)c(=O)[nH]1)C(=O)O	23478*	·	·	·	13.1	·	-34.7
COc1ccc(-c2noc(C(C)n3nc(C)c([N+](=O)[O-])c3C)n2)cc1OC (stereo not given)	2878	-0.9	-7.3	2.6	-6.2	-0.8	-19.1
O=C(Nc1ccccc1)N1CCCN(c2ccc(C(F)(F)F)cn2)CC1	·	3.4	3.6	1.6	-4.4	2.7	-21.0
CCc1nn2c(=O)cc(COc3ccc(NC(=O)c4ccco4)cc3)nc2s1	5521	1.8	-7.2	3.8	-0.3	1.3	3.3
CCCCN(CC)CCCNC(=O)CC1Nc2ccccc2NC1=O (stereo not given)	3281	·	·	·	-3.0	·	-3.7
COc1cc(C(=O)N/N=C/c2sc(N3CCOCC3)nc2-c2ccccc2)cc(OC)c1OC	4958	·	·	·	6.1	·	-2.5
COc1ccccc1/C=C/[C@@H]1C[C@H]2CN(Cc3cccc(Cl)c3)C(=O)[C@]23CCCN13	6263	3.6	6.8	5.1	-2.3	-1.2	-10.4
CCc1ccc(OCC(=O)NN=C(C)c2ccc3c(c2)OCCO3)cc1	·	2.8	4.2	0.9	·	5.7	·
Cc1ccc(C(=O)N2CCN(CCNC(=O)C(=O)NC(C)C)CC2)cc1	4166	6.6	4.2	-2.3	-4.3	14.4	-28.8
O=[N+]([O-])c1cc2c(cc1/C=N\NS(=O)(=O)c1ccccc1)OCO2	8036	·	·	·	-4.4	·	-14.9
Clc1ccc(Oc2cnns2)c(Cl)c1	2479	3.4	·	·	-3.4	-6.7	-33.0
Cc1cc(=S)n(-c2ccccc2)n1C	5245	2.0	·	·	-2.2	3.1	-23.6
O=C(CNC(=O)c1cnccn1)Nc1ccc(F)c(F)c1F	3013	2.3	·	·	3.8	-1.8	-3.6
COC(=O)c1nn(-c2cccc(C(F)(F)F)c2)c(=O)cc1Sc1ccccn1	5649	4.1	-12.2	-2.9	-10.7	1.8	-44.1

As a working copy, 11 of the compounds above.
SMILES	Bead autofluor	RN4220 kill	Mtb hypoxia rep	Mtb hypoxia rep growth	BJeLR viability	ugtP null kill	PrP 5UTR inh
CCc1nn2c(=O)cc(COc3ccc(NC(=O)c4ccco4)cc3)nc2s1	5521	1.8	-7.2	3.8	-0.3	1.3	3.3
CCCCN(CC)CCCNC(=O)CC1Nc2ccccc2NC1=O (stereo not given)	3281	·	·	·	-3.0	·	-3.7
COc1cc(C(=O)N/N=C/c2sc(N3CCOCC3)nc2-c2ccccc2)cc(OC)c1OC	4958	·	·	·	6.1	·	-2.5
COc1ccccc1/C=C/[C@@H]1C[C@H]2CN(Cc3cccc(Cl)c3)C(=O)[C@]23CCCN13	6263	3.6	6.8	5.1	-2.3	-1.2	-10.4
CCc1ccc(OCC(=O)NN=C(C)c2ccc3c(c2)OCCO3)cc1	·	2.8	4.2	0.9	·	5.7	·
Cc1ccc(C(=O)N2CCN(CCNC(=O)C(=O)NC(C)C)CC2)cc1	4166	6.6	4.2	-2.3	-4.3	14.4	-28.8
O=[N+]([O-])c1cc2c(cc1/C=N\NS(=O)(=O)c1ccccc1)OCO2	8036	·	·	·	-4.4	·	-14.9
Clc1ccc(Oc2cnns2)c(Cl)c1	2479	3.4	·	·	-3.4	-6.7	-33.0
Cc1cc(=S)n(-c2ccccc2)n1C	5245	2.0	·	·	-2.2	3.1	-23.6
O=C(CNC(=O)c1cnccn1)Nc1ccc(F)c(F)c1F	3013	2.3	·	·	3.8	-1.8	-3.6
COC(=O)c1nn(-c2cccc(C(F)(F)F)c2)c(=O)cc1Sc1ccccn1	5649	4.1	-12.2	-2.9	-10.7	1.8	-44.1

The list goes on.
SMILES	Bead autofluor	RN4220 kill	Mtb hypoxia rep	Mtb hypoxia rep growth	BJeLR viability	ugtP null kill	PrP 5UTR inh
Cc1ccc(-c2csc3ncn(/N=C/N(C)C)c(=O)c23)o1	3056	·	·	·	-4.2	·	-13.5
CCOCc1nnc(NC(=O)CCS(=O)(=O)Cc2ccccc2)s1	3872	3.6	5.3	-4.8	-2.8	-0.5	-6.2
CCC(=O)N1CCc2cc(S(=O)(=O)CCC(=O)N3CCN(c4ccc(C(C)=O)cc4)CC3)ccc21	5947	1.5	4.3	5.7	-0.4	8.9	-9.5
CC(C)N1CCN(Cc2ccc(Oc3ncccn3)cc2)CC1CCO (stereo not given)	5443	5.2	-1.5	9.2	-3.1	16.8	-20.0
COc1ccc(OC)c(NC(=O)CSc2nnc(-c3ccco3)n2-c2ccccc2)c1	8071	0.4	-2.1	1.3	-2.0	8.9	-27.2
Cc1nc2sc(C(c3ccccc3)N3CC(C)OC(C)C3)c(O)n2n1 (stereo not given)	4203	1.4	·	·	-1.5	-2.7	-38.5
CN1CCN(c2ccc(NC(=O)COc3ccccc3)cc2Cl)CC1	5927	-1.2	2.7	9.2	6.1	-0.7	-56.8
O=C(c1cnn2c(C(F)(F)F)cc(-c3ccco3)nc12)N1CCc2ccccc2C1	10794	-2.4	8.1	1.3	4.4	21.5	-3.9
Cc1cc(C)n2nc(C(=O)N/N=C/c3cccc(Cl)c3)nc2n1	6100	·	·	·	-1.3	·	13.8
C=CCn1c(N2C(=O)CC(Cc3ccccc3)C2=O)nc2ccccc21 (stereo not given)	22688*	0.8	-8.2	11.6	1.8	-0.6	2.4
Cc1ccc(S(=O)(=O)N2CCN(C(=O)CCC(=O)NC3CCCc4ccccc43)CC2)cc1 (stereo not given)	7772	-0.4	7.7	6.4	-12.9	-3.7	-14.1
CCOc1ccc(N2CC(C(=O)NCc3ccc4c(c3)OCO4)CC2=O)cc1 (stereo not given)	2961	4.8	-16.8	0.6	-4.6	6.0	-4.2
CCCCN1C(=N)N([C@@H](C)CN2CCC[C@H]2CN2C(N)=NC[C@H]2C(C)C)C[C@H]1[C@H](C)CC	3620	-0.8	-0.3	8.4	·	0.6	45.8
O=C(NC(=S)/C(=C1\CCCCCN1)[N+](=O)[O-])c1ccccc1	·	4.6	7.8	7.2	·	7.7	58.8*
Cc1nnc(SCC(=O)Nc2cccc(S(N)(=O)=O)c2)n1-c1ccccc1	6255	1.6	-5.6	-0.3	-6.6	18.4	-8.5
CN(C)S(=O)(=O)c1ccc(NC(=O)N2CCN(c3ccccc3)CC2)cc1	3734	-0.2	3.2	-6.4	1.9	9.7	-10.6
CC(NC(=O)Nc1ccc2c(c1)OCO2)c1ccncc1 (stereo not given)	2059	1.6	0.7	-3.8	-2.9	6.9	-12.3
CN1CC2C3C(=O)N(C)C(=O)C3[C@](C)(C1=O)N2C(=O)c1ccc(C(F)(F)F)cc1 (stereo not given in full)	·	7.9	19.3	6.8	·	2.9	·
